Compound activity (PubChem)
Rango release inh: qHTS Assay for Inhibitors of RanGTP induced Rango (Ran-regulated importin-beta cargo) - Importin beta complex dissociation; Potency, µM (highest dose often 46.1 µM), inactives show at the highest dose activity change, negative = inhibition; 0.071% of 340,000 active; Biochemical FRET Rango-importin beta, RanGTP-induced dissociation; active means falling FRET ratio curve, often poorly fitted, with flat reads before Ran was added; inconclusive means other falling curves, or compound fluorescence or quenching; inactive means flat or rising ratio curve;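 further: potency means the concentration at half of the fitted maximal effect; % of control where 0% means no effect; nearly all actives have a fitted effect of over 45% in size; -100% = wells without RanGTP and RCC1; the record marks most hits as doubtful in a second field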
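Rango FRET biosensor (snurportin-1 IBB flanked by N-terminal EYFP and C-terminal CFP10) at 0.1 uM, with 0.25 uM importin beta in PBS, 1mM DTT, 0.02% Tween-20, 0.1% BSA. 0.6 uM Ran, 2mM GTP and 0.2 uM RCC1 were then added for 45 min at room temperature. Inhibition read as loss of FRET rise.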
GLA inh pH 4.5: qHTS Assay for Inhibitors of Human alpha-Galactosidase at pH 4.5; 230,000 tested, under 10 active; purified enzyme, 4-MU-alpha-Gal fluorescence, pH 4.5; activity change, negative = inhibition, % at 105 µM; Alpha-galactosidase A (Homo sapiens), P06280; inconclusive = small, poorly fitted or top-dose-only inhibition, or a rising curve; inactive = flat fitted curve, though single readings scatter; no compound was filed as active;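 further: 0% = full activity with enzyme and -100% = basal without enzyme; dose as in the result columns while the protocol names 77 µM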
Rango complex inh: qHTS Assay for Inhibitors of Rango (Ran-regulated importin-beta cargo) - Importin beta complex formation. 0.031% of 340,000 active. Importin subunit beta-1 (Homo sapiens), Q14974. Rango CFP/YFP FRET sensor + importin beta, 45 min. Potency, µM (series often up to 92.2 µM), for inactives: top-dose inhibition of complex formation; active = rising FRET ratio curve, often small or poorly fitted; inconclusive = mostly compound fluorescence or quenching in the first reads; inactive = flat curves in all reads;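 further: potency means the concentration at half of the fitted maximal effect; 0% = DMSO wells and 100% = buffer wells lacking importin beta; nearly all actives have a fitted effect of over 15% in size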
Target sequence (Q14974 whole entry, looked up): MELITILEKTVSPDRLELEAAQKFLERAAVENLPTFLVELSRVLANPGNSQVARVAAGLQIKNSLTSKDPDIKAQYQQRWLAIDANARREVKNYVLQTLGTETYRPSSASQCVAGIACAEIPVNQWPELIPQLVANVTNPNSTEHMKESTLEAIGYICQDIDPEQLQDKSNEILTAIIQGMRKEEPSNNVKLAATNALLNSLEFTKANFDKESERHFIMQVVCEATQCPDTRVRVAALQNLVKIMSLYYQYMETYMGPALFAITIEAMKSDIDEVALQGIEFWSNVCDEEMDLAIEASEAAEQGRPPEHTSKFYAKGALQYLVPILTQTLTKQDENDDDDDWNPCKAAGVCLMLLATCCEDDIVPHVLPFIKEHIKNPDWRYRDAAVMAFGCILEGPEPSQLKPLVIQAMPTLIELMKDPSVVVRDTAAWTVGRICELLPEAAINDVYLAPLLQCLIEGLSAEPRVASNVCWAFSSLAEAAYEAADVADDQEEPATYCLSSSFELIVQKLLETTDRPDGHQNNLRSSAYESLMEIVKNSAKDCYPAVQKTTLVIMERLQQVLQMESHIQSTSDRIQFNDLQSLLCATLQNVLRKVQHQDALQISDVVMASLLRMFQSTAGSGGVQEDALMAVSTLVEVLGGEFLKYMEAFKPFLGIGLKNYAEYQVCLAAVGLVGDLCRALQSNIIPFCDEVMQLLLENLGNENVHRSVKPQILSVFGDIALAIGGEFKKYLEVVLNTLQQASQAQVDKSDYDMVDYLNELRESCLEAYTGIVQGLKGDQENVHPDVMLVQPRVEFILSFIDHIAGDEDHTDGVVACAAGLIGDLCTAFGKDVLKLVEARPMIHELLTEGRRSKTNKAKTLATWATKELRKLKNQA
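FRET biosensor (snurportin 1 IBB flanked by EYFP and cerulean), 50 nM, with compound 5 min, then 0.125 microM importin beta in PBS, 1 mM DTT, 0.02% Tween-20, 0.1% BSA. CFP/YFP ratio read after 45 min at room temperature; pre-read flags interference.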
miR-21 reporter: qHTS Assay for Modulators of miRNAs and/orActivators of miR-21; AID 2288, 2010; Potency, µM (top dose mostly 38.3 µM), for the others: top-dose reporter change, positive = more light; HeLa miR-21 FLuc reporter, luciferase, 48 h; 340,000 tested, under 10 active; active = well fitted rising curve with a large enough effect; inconclusive = small, poorly fitted or top-dose-only effect; inactive = no such curve, though single readings can be large or run the other way;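 further: % of control where 0% means no effect; miR-21 action dims this reporter so a rising signal means less miR-21 action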
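HeLa miR-21-FLuc reporter line, endogenous miR-21; 2000 cells/well in DMEM/10% FBS; compound titration up to ~40uM final, 48 h, 37 degree Celsius; luciferase detection reagent, 15 min lysis, CCD luminescence.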
* = called active by the depositor; ? = inconclusive; . = no result given; & = joins results of further samples.

Values run as follows: Rango release inh, GLA inh pH 4.5, Rango complex inh, miR-21 reporter
- CN1CCN(c2c(F)cc3c(=O)c(C(=O)O)cn4c3c2SCC4)CC1
→ 1%, -10&-26, -0.6%, 1%&9%
- CN1CCC(=C2c3ccccc3CC(=O)c3sccc32)CC1
→ 9%&-1%&11%, 0&2&3&2&9, 8.5%&-1.9%&-1.5%, -19%&0%
- Cc1oncc1C(=O)Nc1ccc(C(F)(F)F)cc1
→ 14%, 3&-23&-2&1&13, 0.4%, -7%
- O=C(O)CCCCCCCC(=O)O
→ -8%, -4&2&3, 1.6%, -8%
- CCOc1ccc(NC(=S)N2CCC(C(O)(c3ccccc3)c3ccccc3)CC2)cc1
→ -6%, 1, ?, -13%
- CN1CCN(CCCN2c3ccccc3Sc3ccc(S(=O)(=O)N(C)C)cc32)CC1
→ -8%, 0, 0.5%, .
- O=C(NCCN1CCOCC1)c1ccc(Cl)cc1
→ 1%, ., 0.7%, -9%
- CCCCOC(=O)c1ccc(N)cc1
→ -17%, 4&6&4, 0.0%, -20%
- CN(C)CCC[C@@]1(c2ccc(F)cc2)OCc2cc(C#N)ccc21
→ 17%, 1&-1, -0.8%, .
- O=C1c2ccccc2C(=O)c2c(O)c(O)cc(O)c21
→ 0%, -2&-5, -3.8%, .
- CC(=O)OCC(=O)C1(O)CCC2C3CCC4=CC(=O)C=CC4(C)C3(F)C(O)CC21C (configuration not stated)
→ -13%, ., -0.2%, .
- C[C@@H]1C[C@H]2[C@@H]3C[C@H](F)C4=CC(=O)C(Cl)=C[C@]4(C)[C@@]3(F)[C@@H](O)C[C@]2(C)[C@@]1(O)C(=O)CO
→ ., -5, ., -25%
- O=c1c(O[C@@H]2O[C@H](CO)C(O)C2O)c(-c2ccc(O)c(O)c2)oc2cc(O)cc(O)c12 (some centres not stated)
→ -21%, ., -0.3%, .
- CCC12CCCN3CCc4c(n(c5ccccc45)C(O)(C(=O)OC)C1)C32 (configuration not stated)
→ ?, 3, ?, 1%
- OCC(O)CN1CCN(c2ccccc2)CC1 (configuration not stated)
→ 0%, 4&0, 0.1%, -10%
- COc1ccc(S(=O)(=O)Nc2nnc(CC(C)C)s2)cc1
→ -15%, -4, 3.9%, -11%
- O=C1c2c(O)cccc2C(C2OC(CO)[C@@H](O)[C@H](O)[C@H]2O)c2cc(CO)cc(O)c21 (some centres not stated)
→ -5%, ., 1.0%, .
- COc1cc(NC(=O)c2cc(C3CC3)on2)c(OC)cc1Cl
→ 2%, -8, -0.5%, -6%
- Nc1cc(=O)[nH]c(N)n1
→ -24%, 1&5, -2.4%, .
- CC(=O)O[C@@]12CO[C@@H]1C[C@H](O)[C@@]1(C)C(=O)[C@H](O)C3=C(C)[C@@H](OC(=O)[C@H](O)[C@@H](NC(=O)OC(C)(C)C)c4ccccc4)C[C@](O)([C@@H](OC(=O)c4ccccc4)[C@H]21)C3(C)C
→ ., -1, ., 22%
- CN(C)CCOC(=O)C(c1ccccc1)C1(O)CCCC1 (configuration not stated)
→ 1%, 0, -0.8%, -13%
- CCCN(CCC)C(=O)C(CCC(=O)O)NC(=O)c1ccccc1 (configuration not stated)
→ 9%, 2&5, -1.1%, -4%
- CCCc1cc(C(N)=S)ccn1
→ -10%, 3&2, -0.9%, 1%
- COc1ccccc1OC(=O)Oc1ccccc1OC
→ -11%, ., -0.1%, .
- CC(C)(C(=O)c1cccnc1)c1cccnc1
→ -14%, 9, 3.0%, .
- O=C1CCc2cc(OCCCCc3nnnn3C3CCCCC3)ccc2N1
→ 9%, 3&-1&-6&-2&0&2, -3.3%, -2%&4%&-6%
- CN(CCOc1ccc(NS(C)(=O)=O)cc1)CCc1ccc(NS(C)(=O)=O)cc1
→ ., -3, ., -9%
- OCCOCCN1CCN(C(c2ccccc2)c2ccc(Cl)cc2)CC1 (configuration not stated)
→ -17%, ., 3.1%, -4%
- COc1ccc(Sc2ccc(NC(=O)c3ccccc3Cl)cc2C#N)cc1
→ 12%, -30, -0.1%, 22%
- COc1c(O)cc2c(c1O)[C@@H]1O[C@H](CO)[C@@H](O)[C@H](O)[C@H]1OC2=O
→ -1%, ., 1.6%, -1%
- CCN(CC)CCOC(=O)C(c1ccccc1)c1ccccc1
→ 3%, -6&6, -1.0%, -8%
- CCOC(=O)Nc1ccc(NCc2ccc(F)cc2)nc1N
→ ?, -2, ?, .
- CN(C)C(=N)N=C(N)N
→ 8%, 3&2&1, 0.8%, 1%
- C/C=C(/C)C(=O)O[C@@H]1c2cc3c(c4c2[C@@]2(CO4)C(=O)C(OC)=C(OC)C=C2C[C@@H](C)[C@H]1C)OCO3
→ 0%, 2, 5.7%, 2%
- CCCCCCCCCC(=O)O
→ 0%, ., -0.6%, .
- C[C@@H](O)CC(=O)O
→ 5%&1%, ., 8.2%&0.1%, .
- Cc1ccsc1/C=C/C1=NCCCN1C
→ ?, -2&2, 0.2%&0.0%&5.5%, -3%
- Oc1cc2c(cc1O)C1c3ccc(O)c(O)c3OCC1(O)C2 (configuration not stated)
→ 1%, -21&-1, 4.0%, 11%
- CC[C@]12CCCN3CCc4c(n(c5ccccc45)[C@@](O)(C(=O)OC)C1)[C@@H]32
→ -5%, ., 2.6%, .
- CCC(Cc1c(I)cc(I)c(N)c1I)C(=O)O (configuration not stated)
→ 7%, -1, -2.6%, .

Ordered by the number under GLA inh pH 4.5 (smallest number first): some entries from above.
Structure | Rango release inh | GLA inh pH 4.5 | Rango complex inh | miR-21 reporter
CCOC(=O)Nc1ccc(NCc2ccc(F)cc2)nc1N | ? | -2 | ? | .
CN(C)CCOC(=O)C(c1ccccc1)C1(O)CCCC1 (configuration not stated) | 1% | 0 | -0.8% | -13%
CC(C)(C(=O)c1cccnc1)c1cccnc1 | -14% | 9 | 3.0% | .

(cont.)
Values run as follows: Rango release inh, GLA inh pH 4.5, Rango complex inh, miR-21 reporter
- COc1cc(C(=O)NCCCCCC(=O)O)cc(OC)c1OC
→ 2%, -6, 0.1%, 5%
- COc1cc2c(c(OC)c1OC)-c1c(cc(OC)c(OC)c1OC)C[C@H](C)[C@H](C)C2
→ 23%, -1, -0.3%, 12%
- CC1CCc2c(N3CCC(O)CC3)c(F)cc3c(=O)c(C(=O)O)cn1c23 (configuration not stated)
→ 29%, ., -3.5%, .
- COc1cc(C)nc(-n2nc(C)cc2OC)n1
→ 8%, -4, -0.2%, -2%
- Nc1ncnc(Nc2ccccc2)n1
→ 1%, ., -4.7%, .
- O=C(c1ccccc1)c1ccc2n1CCC2C(=O)O (configuration not stated)
→ 1%, -6&-4&-6, 8.0%, -15%
- CC1(C)Oc2ccc(C#N)cc2[C@@H](N2CCCC2=O)[C@@H]1O
→ -18%, 0, -2.7%, 0%
- CN=C(N)NC(=O)Nc1c(C)cccc1C
→ 7%, 1, 0.3%, -10%
- CCOC(=O)Nc1ccc2c(c1)N(C(=O)CCN1CCOCC1)c1ccccc1S2
→ -3%&11%, -12&-5&6, 1.8%&-0.4%, -14%&-6%&-12%
- Cc1cc(O)c2c(c1)C(=O)c1cccc(O)c1C2=O
→ ., 9&6&8, ., -12%
- C#C[C@]1(O)CC[C@H]2[C@@H]3CCC4=CC(=O)CC[C@@H]4[C@H]3CC[C@@]21CC
→ -5%&-9%, -3&2&-16, -2.1%&0.7%, -3%&-13%

19 entries already listed, ordered by length of the SMILES, highest first.
Values run as follows: Rango release inh, GLA inh pH 4.5, Rango complex inh, miR-21 reporter
- CC(=O)O[C@@]12CO[C@@H]1C[C@H](O)[C@@]1(C)C(=O)[C@H](O)C3=C(C)[C@@H](OC(=O)[C@H](O)[C@@H](NC(=O)OC(C)(C)C)c4ccccc4)C[C@](O)([C@@H](OC(=O)c4ccccc4)[C@H]21)C3(C)C
→ ., -1, ., 22%
- O=C1c2c(O)cccc2C(C2OC(CO)[C@@H](O)[C@H](O)[C@H]2O)c2cc(CO)cc(O)c21 (some centres not stated)
→ -5%, ., 1.0%, .
- COc1cc2c(c(OC)c1OC)-c1c(cc(OC)c(OC)c1OC)C[C@H](C)[C@H](C)C2
→ 23%, -1, -0.3%, 12%
- CC(=O)OCC(=O)C1(O)CCC2C3CCC4=CC(=O)C=CC4(C)C3(F)C(O)CC21C (configuration not stated)
→ -13%, ., -0.2%, .
- CCOc1ccc(NC(=S)N2CCC(C(O)(c3ccccc3)c3ccccc3)CC2)cc1
→ -6%, 1, ?, -13%
- CN1CCN(CCCN2c3ccccc3Sc3ccc(S(=O)(=O)N(C)C)cc32)CC1
→ -8%, 0, 0.5%, .
- CC1CCc2c(N3CCC(O)CC3)c(F)cc3c(=O)c(C(=O)O)cn1c23 (configuration not stated)
→ 29%, ., -3.5%, .
- CC1(C)Oc2ccc(C#N)cc2[C@@H](N2CCCC2=O)[C@@H]1O
→ -18%, 0, -2.7%, 0%
- CCCN(CCC)C(=O)C(CCC(=O)O)NC(=O)c1ccccc1 (configuration not stated)
→ 9%, 2&5, -1.1%, -4%
- O=C1CCc2cc(OCCCCc3nnnn3C3CCCCC3)ccc2N1
→ 9%, 3&-1&-6&-2&0&2, -3.3%, -2%&4%&-6%
- Cc1cc(O)c2c(c1)C(=O)c1cccc(O)c1C2=O
→ ., 9&6&8, ., -12%
- CN(C)CCOC(=O)C(c1ccccc1)C1(O)CCCC1 (configuration not stated)
→ 1%, 0, -0.8%, -13%
- CC(C)(C(=O)c1cccnc1)c1cccnc1
→ -14%, 9, 3.0%, .
- CN=C(N)NC(=O)Nc1c(C)cccc1C
→ 7%, 1, 0.3%, -10%
- Cc1ccsc1/C=C/C1=NCCCN1C
→ ?, -2&2, 0.2%&0.0%&5.5%, -3%
- CCCCOC(=O)c1ccc(N)cc1
→ -17%, 4&6&4, 0.0%, -20%
- Nc1ncnc(Nc2ccccc2)n1
→ 1%, ., -4.7%, .
- O=C(O)CCCCCCCC(=O)O
→ -8%, -4&2&3, 1.6%, -8%
- CCCCCCCCCC(=O)O
→ 0%, ., -0.6%, .

This is a subset; count on the stated rates, not on these rows.
